NPYLR7 ag: activates Aedes aegypti NPYLR7 receptor; HEK293T NPYLR7/Galpha15, GCaMP6s calcium fluorescence; activation, % at 10 µM; hit rate 0.15% among 270,000; in the data active = activation above about 40%;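 also: 0% = vehicle and 100% = reference agonist at the receptor; some compounds past the cut are filed as inactive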
NPYLR7 ag max-min: recorded beside NPYLR7 ag, whose call it bears; activation, %; measured here: Max-Min RFU normalised activation; some inactives read as strong as hits;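 span of the calcium signal over five minutes; 0% = vehicle and 100% = native peptide agonist; compound fluorescence can raise it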
Starred values were filed as active, the others as inactive. An excerpt (hit frequency here may not be typical).

For CCOCCCNc1nc(Nc2ccc(OC)cc2)c2cnn(-c3ccccc3)c2n1 the results were NPYLR7 ag -1 and NPYLR7 ag max-min -4.
`Cc1cc(C)c(NC(=O)CNC(=O)C2CC(=O)N(Cc3ccccc3)C2)c(C)c1` (stereo not drawn) gave NPYLR7 ag -13 and NPYLR7 ag max-min -14.
`Cc1ccc(-n2cnc3cc(C(=O)O)ccc32)c(C)c1` gave NPYLR7 ag 0 and NPYLR7 ag max-min 1.
Cc1cc(N(CN2CCCC2=O)C(=O)c2ccccc2)no1 was read as NPYLR7 ag 7 and NPYLR7 ag max-min 3.
`CC(C)n1ccc(C(=O)Nc2ccc(-n3ccnc3)c(Cl)c2)n1` gave NPYLR7 ag 2 and NPYLR7 ag max-min 0.
`Cc1ccc2[nH]c3c(=O)n(CC(=O)NCc4ccccc4Cl)cnc3c2c1` gave NPYLR7 ag 2 and NPYLR7 ag max-min -2.
`Cc1ccc(F)c(Oc2cc(N3CCc4ccccc4C3)ncn2)c1` gave NPYLR7 ag -10 and NPYLR7 ag max-min -11.
`Cc1ccsc1C(=O)N1CCCC(CCC(=O)N2CCN(C)CC2)C1` (stereo not drawn) gave NPYLR7 ag 6 and NPYLR7 ag max-min 3.
O=C(O)C(=O)N1CCN(CCO)CC1 was read as NPYLR7 ag -2 and NPYLR7 ag max-min 2.
Screening Cn1nnnc1SCc1csc(Cc2ccc(F)cc2Cl)n1 returned NPYLR7 ag 10 and NPYLR7 ag max-min 11.
For CN(CC(=O)O)S(=O)(=O)c1ccc(F)c2ccccc12 the results were NPYLR7 ag 9 and NPYLR7 ag max-min 10.
For CN(C)c1ccc(NC(=O)c2ccccc2Cl)cc1CN(Cc1ccc(F)cc1)C(=O)C(C)(C)C the results were NPYLR7 ag 18 and NPYLR7 ag max-min 28.
Cc1cn2c3c(=O)n(Cc4ccccc4Cl)c(=O)n(C)c3nc2n1Cc1ccco1 was read as NPYLR7 ag -1 and NPYLR7 ag max-min 2.
Screening COc1ccc(/C=C2\NC(=S)NC2=O)cc1 returned NPYLR7 ag 3 and NPYLR7 ag max-min -9.
For COc1ccc(-c2cnc3ncnn3c2NCC2CCCCC2)cc1 the results were NPYLR7 ag 13 and NPYLR7 ag max-min 5.
Screening Cn1c(=O)[nH]c(=O)c2c1nc(CN1CCN(c3cccc(Cl)c3)CC1)n2CC(N)=O returned NPYLR7 ag 8 and NPYLR7 ag max-min 8.
For COC(=O)C(C#N)c1nc2ccccc2nc1NCC1(N(C)C)CCCCC1 (stereo not drawn) the results were NPYLR7 ag 0 and NPYLR7 ag max-min -3.
For CC(C)CCNc1ncnc2sc3c(c12)CCCC3 the results were NPYLR7 ag 0 and NPYLR7 ag max-min 3.
CN(Cc1ccco1)c1nc(-c2ccc(-c3ccccc3)cc2)nc2ccccc12 was read as NPYLR7 ag 0 and NPYLR7 ag max-min 2.
Screening CC(C)=CCC/C(C)=C/CNC(=O)c1cc(N2CCSCC2)nc2ccccc12 returned NPYLR7 ag 5 and NPYLR7 ag max-min 1.

An excerpt from above in order of length of the SMILES, lowest first.
O=C(O)C(=O)N1CCN(CCO)CC1 was read as NPYLR7 ag -2 and NPYLR7 ag max-min 2.
For CC(C)CCNc1ncnc2sc3c(c12)CCCC3 the results were NPYLR7 ag 0 and NPYLR7 ag max-min 3.
Screening Cn1nnnc1SCc1csc(Cc2ccc(F)cc2Cl)n1 returned NPYLR7 ag 10 and NPYLR7 ag max-min 11.
For COc1ccc(-c2cnc3ncnn3c2NCC2CCCCC2)cc1 the results were NPYLR7 ag 13 and NPYLR7 ag max-min 5.
For CN(CC(=O)O)S(=O)(=O)c1ccc(F)c2ccccc12 the results were NPYLR7 ag 9 and NPYLR7 ag max-min 10.
`Cc1ccc(F)c(Oc2cc(N3CCc4ccccc4C3)ncn2)c1` gave NPYLR7 ag -10 and NPYLR7 ag max-min -11.
`Cc1ccsc1C(=O)N1CCCC(CCC(=O)N2CCN(C)CC2)C1` (stereo not drawn) gave NPYLR7 ag 6 and NPYLR7 ag max-min 3.
`CC(C)n1ccc(C(=O)Nc2ccc(-n3ccnc3)c(Cl)c2)n1` gave NPYLR7 ag 2 and NPYLR7 ag max-min 0.
For COC(=O)C(C#N)c1nc2ccccc2nc1NCC1(N(C)C)CCCCC1 (stereo not drawn) the results were NPYLR7 ag 0 and NPYLR7 ag max-min -3.
`Cc1ccc2[nH]c3c(=O)n(CC(=O)NCc4ccccc4Cl)cnc3c2c1` gave NPYLR7 ag 2 and NPYLR7 ag max-min -2.
CN(Cc1ccco1)c1nc(-c2ccc(-c3ccccc3)cc2)nc2ccccc12 was read as NPYLR7 ag 0 and NPYLR7 ag max-min 2.
Screening Cn1c(=O)[nH]c(=O)c2c1nc(CN1CCN(c3cccc(Cl)c3)CC1)n2CC(N)=O returned NPYLR7 ag 8 and NPYLR7 ag max-min 8.
For CN(C)c1ccc(NC(=O)c2ccccc2Cl)cc1CN(Cc1ccc(F)cc1)C(=O)C(C)(C)C the results were NPYLR7 ag 18 and NPYLR7 ag max-min 28.

Later entries.
Screening CCN1CCc2nc(-c3ccc(F)cc3)n(CC(=O)N(CC)c3ccccc3)c(=O)c2C1 returned NPYLR7 ag -9 and NPYLR7 ag max-min -9.
Screening O=C(NC12CC3CC(CC(C3)C1)C2)N1CCc2nc(-c3ccccc3)nc(N3CCOCC3)c2C1 returned NPYLR7 ag -8 and NPYLR7 ag max-min -13.
Screening CCc1ncc(CNC2(c3ccc(F)cc3)CCOCC2)s1 returned NPYLR7 ag 7 and NPYLR7 ag max-min 3.
Cc1cc(C(=O)N2CCN(C(=O)CN3CCOCC3)CC2)c(C)n1C(C)C was read as NPYLR7 ag 15 and NPYLR7 ag max-min 11.
`O=C(c1cn(Cc2ccccc2Cl)nn1)N1CCCC(OCc2ccccc2)C1` (stereo not drawn) gave NPYLR7 ag 20 and NPYLR7 ag max-min 5.
For CCOc1ccc(C=C2N=C(C(C)(C)C)OC2=O)cc1OC the results were NPYLR7 ag 29 and NPYLR7 ag max-min 24.
Screening CCn1cc(CNc2nccc(CCC(F)(F)F)n2)cn1 returned NPYLR7 ag 3 and NPYLR7 ag max-min 0.
Cc1cccc(-n2nc(C(=O)N3CCOCC3)c(=O)n(Cc3ccc(F)cc3)c2=O)c1 was read as NPYLR7 ag -3 and NPYLR7 ag max-min 2.
`O=[N+]([O-])c1cc(C(F)(F)F)cc([N+](=O)[O-])c1Sc1cccc2cccnc12` gave NPYLR7 ag -9 and NPYLR7 ag max-min -16.
Screening CC(C)c1nnc(-c2cc3ccccc3n2CC(=O)N2CCCCC2)o1 returned NPYLR7 ag -11 and NPYLR7 ag max-min -5.
`CCCCCN(CC(=O)N1CCc2sccc2C1c1ccccc1C)S(=O)(=O)c1cccc(C(F)(F)F)c1` (stereo not drawn) gave NPYLR7 ag 0 and NPYLR7 ag max-min -7.
Screening COc1ccc(C)cc1NC(=O)N(C)C(C)c1ccc(S(N)(=O)=O)cc1 (stereo not drawn) returned NPYLR7 ag 0 and NPYLR7 ag max-min 2.
`Cc1ccc(C2c3ccccc3CCN2C(=O)Nc2ccc(F)cc2F)cc1` (stereo not drawn) gave NPYLR7 ag 11 and NPYLR7 ag max-min 12.
Screening CCC(CO)(NC(=O)Nc1ccccc1)c1ccccc1 (stereo not drawn) returned NPYLR7 ag 8 and NPYLR7 ag max-min 6.
Screening COc1ccc(Cc2noc(CN3CCN(c4ccc(Cl)cn4)CC3)n2)cc1OC returned NPYLR7 ag 6 and NPYLR7 ag max-min -2.
O=C1CN(C(=O)c2ccccc2Cc2ccccc2)CCN1 was read as NPYLR7 ag -3 and NPYLR7 ag max-min -4.
`CC(NC1CSCCSC1)c1nc(-c2ccccn2)no1` (stereo not drawn) gave NPYLR7 ag 24 and NPYLR7 ag max-min 16.
`O=C(Nc1ccccc1C(F)(F)F)N1CCSC1c1cccc(C(F)(F)F)c1` (stereo not drawn) gave NPYLR7 ag -4 and NPYLR7 ag max-min 7.
Screening CCCNC(=O)Nc1cccc(OCc2ncc(C(C)(C)C)o2)c1 returned NPYLR7 ag 0 and NPYLR7 ag max-min -5.
Oc1ccc(-c2nc3cnccn3c2NC2CCCC2)cc1 was read as NPYLR7 ag 3 and NPYLR7 ag max-min 0.
Screening CCCc1cc(C(=O)NC2CCC(n3cnnc3)CC2)ccn1 (stereo not drawn) returned NPYLR7 ag 27 and NPYLR7 ag max-min 17.
For COc1cccc(Cc2c(C)nc(C)nc2N2CCN(C(=O)c3cc(OC)cc(OC)c3)CC2)c1 the results were NPYLR7 ag 9 and NPYLR7 ag max-min 13.
`O=C(COC(=O)c1ccccc1SCc1ccco1)NNC(=O)c1cccs1` gave NPYLR7 ag 0 and NPYLR7 ag max-min 2.
CC1Oc2ccccc2OC1C(=O)NNC(=O)c1cccnc1 (stereo not drawn) was read as NPYLR7 ag 4 and NPYLR7 ag max-min 3.
Screening COc1ccc(OC)c(Nc2ccc(Nc3cc(OC)ccc3OC)nn2)c1 returned NPYLR7 ag -3 and NPYLR7 ag max-min -3.
For CC1Sc2ccc(C#N)cc2N(Cc2ccc(Cl)cc2)C1=O (stereo not drawn) the results were NPYLR7 ag 0 and NPYLR7 ag max-min -4.
`COc1ccccc1OCC(=O)N1CCC(C2(C)NC(=O)N(Cc3ccc(F)cc3)C2=O)CC1` (stereo not drawn) gave NPYLR7 ag 7 and NPYLR7 ag max-min 1.
CCOc1c(CC)cnc2c1c(=O)n(Cc1ccc(F)cc1)c(=O)n2C was read as NPYLR7 ag -3 and NPYLR7 ag max-min -5.
For CCN(CC)Cc1cnc2c(C(=O)Nc3cccc(C(C)=O)c3)cnn2c1 the results were NPYLR7 ag 3 and NPYLR7 ag max-min 3.
`Cc1cccc(Cn2c(-c3cnccn3)n[nH]c2=O)c1` gave NPYLR7 ag 4 and NPYLR7 ag max-min 0.
COc1c(Cl)cc(NCc2csc(NC(C)=O)n2)cc1Cl was read as NPYLR7 ag 0 and NPYLR7 ag max-min -2.
Screening COc1ccc(-c2c(O)c3c(OC)c4c(cc3oc2=O)OC(C)(C)CC4)cc1 returned NPYLR7 ag -6 and NPYLR7 ag max-min -9.
`Cc1ccc(Cc2nsc(N(C)CC(=O)N3CCN(c4ccc([N+](=O)[O-])cc4)CC3)n2)cc1` gave NPYLR7 ag -1 and NPYLR7 ag max-min 6.
CC(=O)N[C@@H]1C[C@H](Cc2ccccc2)O[C@H](C(C)(C)CN2CCOCC2)C1 was read as NPYLR7 ag 1 and NPYLR7 ag max-min -3.
Screening CC(C)N1CCN(c2nnc(C(=O)NCc3ccccc3)c3ccccc23)CC1 returned NPYLR7 ag 5 and NPYLR7 ag max-min 5.
CCC(c1cccnc1)N(C)Cc1cc2c(cc1Cl)OCO2 (stereo not drawn) was read as NPYLR7 ag 1 and NPYLR7 ag max-min -4.
Screening COc1ccc(N2CCN(C(=O)C3CC=CCC3C(=O)NCCCCc3ccccc3)CC2)cc1 (stereo not drawn) returned NPYLR7 ag -4 and NPYLR7 ag max-min -12.
Cc1cc(C)c2sc(N(CCCN(C)C)C(=O)c3ccco3)nc2c1 was read as NPYLR7 ag 4 and NPYLR7 ag max-min 1.
For C=CCCC(O)CN(CCN1CCOCC1)Cc1cccc(C)c1 (stereo not drawn) the results were NPYLR7 ag 17 and NPYLR7 ag max-min 12.
`COCCN(CC(=O)N1CCc2sccc2C1c1ccccc1C)S(=O)(=O)c1cccc2cccnc12` (stereo not drawn) gave NPYLR7 ag 18 and NPYLR7 ag max-min 31.
NC(=O)c1ccc(NC(=O)c2ccnc(C3CC3)n2)cc1F was read as NPYLR7 ag -2 and NPYLR7 ag max-min 27.
`CC(C)(NC(=O)c1cccs1)C(=O)NCCOc1ccccc1Cl` gave NPYLR7 ag 4 and NPYLR7 ag max-min 1.
For C=CCn1c(=O)c2c(nc3n2CC(C)CN3c2ccc(OC)cc2OC)n(C)c1=O (stereo not drawn) the results were NPYLR7 ag -6 and NPYLR7 ag max-min -9.
Screening O=C(CNC(=O)c1ccccn1)N=Nc1c(O)[nH]c2ccc([N+](=O)[O-])cc12 returned NPYLR7 ag -8 and NPYLR7 ag max-min -13.
For CCN(CC)C1=NC2(CCN(C(=O)C3CCCCCN3C)CC2)C(=O)N1 (stereo not drawn) the results were NPYLR7 ag 1 and NPYLR7 ag max-min 2.
For c1ccc(-c2ccc(-c3cnc4ccccc4n3)cc2)cc1 the results were NPYLR7 ag 16 and NPYLR7 ag max-min 8.
Screening CCOC(=O)c1cc(-c2cccc(NC(=O)c3csc4ccccc34)c2)n(-c2ccc(OC)cc2)n1 returned NPYLR7 ag 27 and NPYLR7 ag max-min 20.
For COc1nc(-c2ccc(C)cc2)n(-c2ccc(NC(=O)c3ccccc3Cl)cc2)n1 the results were NPYLR7 ag 20 and NPYLR7 ag max-min 12.
Screening COc1ccc(C(=O)C2CCCN(Cc3cccn3-c3ccc(Cl)cn3)C2)c(OC)c1 (stereo not drawn) returned NPYLR7 ag 12 and NPYLR7 ag max-min 6.
CSc1ccc(NC(=O)c2n[nH]c(=O)c3ccccc23)cc1 was read as NPYLR7 ag 4 and NPYLR7 ag max-min 0.
Screening CCc1nc2ccc(C(=O)N3CCN(C(=O)c4ccco4)CC3)cn2c1N(CC)Cc1cccc(Br)c1 returned NPYLR7 ag 13 and NPYLR7 ag max-min 10.
Screening CCn1cnnc1CNC(=O)N1CCSC2(CCCCC2)C1 returned NPYLR7 ag 5 and NPYLR7 ag max-min 3.
For CCOC(=O)c1[nH]ncc1CN1CCc2ccc(NC(=O)C3CCCO3)cc2C1 (stereo not drawn) the results were NPYLR7 ag 13 and NPYLR7 ag max-min 4.
Screening COc1ccc(F)cc1C(=O)C1CCCN(Cc2ccc3nsnc3c2)C1 (stereo not drawn) returned NPYLR7 ag 10 and NPYLR7 ag max-min 10.
For CCCCC1C=CCN1C(=O)c1ccnc(C(C)C)n1 (stereo not drawn) the results were NPYLR7 ag 22 and NPYLR7 ag max-min 17.
`CCC(NC(=O)COc1ccccc1F)c1nc(C)cs1` (stereo not drawn) gave NPYLR7 ag 2 and NPYLR7 ag max-min 7.
For Cn1[nH]c(-c2ccncc2)c(C(=O)COc2ccc3c(c2)CCC3)c1=O the results were NPYLR7 ag -3 and NPYLR7 ag max-min -3.

Screens: PubChem, Fisher Drug Discovery Resource Center
